Ba CapD inh = CapD enzyme inhibition; purified CapD enzyme, fluorescence intensity read-out; hits give low values; some hits fall short of the stated cut; z-score (concentration not given with the values); 0.23% of 140,000 active; AID 492967;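 active = z-score under -4 in either of two replicates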;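 note: stock transfer was 100 nL into about 40 µL; score is relative to mean and spread of the plate; one replicate is shown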
AID504770 = E. coli YBA685 growth inhibition, screen for V. cholerae RctB inhibitors; z-score (no concentration beside the values); 0.27% of 130,000 active; AID 504770; E. coli YBA685 rctB-dependent plasmid, OD600 growth, 3 h; hits give low values;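 active = z-score under -2 on both plates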;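 note: wells of about 30 µL received 100 nL stock; score is relative to mean and SD of the test wells; the first replicate is given; strong numbers were not always called active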
Active calls of the source: *; . = not tested or not shown.

canonical_smiles	Ba CapD inh	AID504770
O=C1c2ccccc2C(=O)N1CC1COc2ccccc2O1 (stereo not drawn)	0.68	1.5
CCOc1ccc(-n2nnnc2-c2nc3ccccc3s2)cc1	35.6	-0.5
CN(C)Cc1coc2ccccc2c1=O	0.325	-0.3
OCn1c2ccccc2c2cc(Cl)ccc21	3.38	0
CC(C)Oc1ccc(CNCCC(c2ccccc2)c2ccco2)cc1 (stereo not drawn)	-0.975	-0.95
Cc1c(Cl)cccc1NC(=O)C1CC1(c1ccccc1)c1ccccc1 (stereo not drawn)	-0.055	.
CCc1nc2sc3c(c2c2nnc(C)n12)CCC3	0.11	-0.3
COc1ccc([N+](=O)[O-])cc1N(CC(O)CN(CC(C)C)CC(C)C)S(=O)(=O)c1ccc(C)cc1 (stereo not drawn)	-0.77	.
O=C(Cn1c(=O)n(Cc2nc(-c3ccccc3)no2)c(=O)c2cc3c(cc21)OCO3)Nc1ccccc1C(F)(F)F	32.7	1.45
O=C(CO/N=C\c1ccccc1)Nc1ccccc1C(=O)O	0.78	-0.3

Given with values under each structure: entries from further up.
Order of results: Ba CapD inh, AID504770
> CC(C)Oc1ccc(CNCCC(c2ccccc2)c2ccco2)cc1 (stereo not drawn)
  -0.975, -0.95
> Cc1c(Cl)cccc1NC(=O)C1CC1(c1ccccc1)c1ccccc1 (stereo not drawn)
  -0.055, .

Additional compounds follow.
canonical_smiles	Ba CapD inh	AID504770
Cc1ccc(S(=O)(=O)NC(=O)N2CCCCC2)cc1	-0.73	.
O=C(NCCO)c1cccc(Cl)c1	0.48	0.1
COc1ccc(Cl)cc1C(=O)Nc1nnc(-c2ccc(F)cc2)s1	12.4	0.7
O=C(c1csc2c1CCCC2)N1CCc2ccccc21	0.015	-0.9
CCC(CC)C(=O)N1c2ccccc2CCc2ccccc21	-0.235	0.75
C#CCSc1nccc(-c2cc(-c3ccc(Cl)cc3)no2)n1	1.1	-0.35
O=C(CNC(=O)c1cccc(Cl)c1)N/N=C/c1ccc([N+](=O)[O-])s1	-1.97	.
O=C(CSc1n[nH]c(-c2ccco2)n1)c1ccc(O)c(O)c1	-0.52	.
O=C(c1ccc2occc2c1)N1CC=C(c2ccccc2)CC1	0.35	1.95
O=C(c1ccc2c(c1)N(Cc1cccc(Cl)c1)C(=O)c1ccccc1S2=O)N1CCCCC1 (stereo not drawn)	-1.46	0.7
O=C(NC1CCCCC1)c1ccc(N2CC3CC(C2)c2cccc(=O)n2C3)c(NS(=O)(=O)c2ccc(F)cc2)c1 (stereo not drawn)	0.02	-0.45
COc1ccc(-c2nsc(SCC(=O)c3ccc(Cl)cc3)n2)cc1	-1.51	0.2
O=C(C[n+]1ccccc1)c1c(F)cccc1F	0.26	.
O=S(=O)(Cc1ccccc1)NNc1ccccc1	.	0.65
COc1cc(CO)cc(Cl)c1OCC(N)=O	0.465	-0.75
COc1cccc(N2C(=O)CC(Sc3nnc(C)s3)C2=O)c1 (stereo not drawn)	-0.28	-0.75
CCOC(=O)c1ccc(NC(=O)CSc2nc(NC(=O)c3ccccc3)c3c(C)c(C)oc3n2)cc1	.	0.8
N=C1C(c2nc3ccccc3c(=O)[nH]2)=C(O)CN1Cc1ccccc1	.	2.2
CCOC(=O)c1[nH]c(C)c(C(=O)N2CCCCCC2)c1C	-0.895	-0.55
COc1ccc(Cl)cc1NC(C)=O	0.35	.
CC(C)c1ccc(Nc2nnns2)cc1	0.1	-1.05
O=C(N/N=C/c1cc2ccccc2o1)c1ccc(F)cc1	0.12	.
N=C(N)SCc1c(F)cccc1Cl	-1.29	.
NC(=O)C1CCN(C(=O)CSc2ncccn2)CC1	0.025	-0.05
O=C(NC1CCCCCCC1)c1cccn2c(=O)c3cc(Br)ccc3nc12	0.755	-3.85
Cc1ccc(C)c2c(=O)c(C(=O)O)c[nH]c12	40.9	.
O=S(=O)(N/N=C/C1=C(N2CCOCC2)C(=C\c2ccccc2)/CC1)c1ccccc1	.	0.05
CCOc1ccc(NC(=O)c2ccc3c(c2)N(C)CCS3)cc1	13.7	-0.15
C=CCN1C(=O)CSC1=Nc1ccc(S(=O)(=O)Nc2nccc(C)n2)cc1	0.09	-0.3
O=S(=O)(NCc1ccccc1)c1ccc2[nH]c3nc4nc(-c5ccc(Br)cc5)cn4nc3c2c1	1.65	.

A draw from above in order of molar mass, low to high:
canonical_smiles	Ba CapD inh	AID504770
CC(C)c1ccc(Nc2nnns2)cc1	0.1	-1.05
O=C(N/N=C/c1cc2ccccc2o1)c1ccc(F)cc1	0.12	.
CCOc1ccc(NC(=O)c2ccc3c(c2)N(C)CCS3)cc1	13.7	-0.15
O=S(=O)(NCc1ccccc1)c1ccc2[nH]c3nc4nc(-c5ccc(Br)cc5)cn4nc3c2c1	1.65	.

Continuation:
canonical_smiles	Ba CapD inh	AID504770
O=C(CN1C(=O)CSc2ccccc21)NCCC1=CCCCC1	-0.82	-1.35
CCOc1ccc(S(=O)(=O)N2CCCC(C(=O)N3CCN(c4ccccc4)CC3)C2)cc1 (stereo not drawn)	-1.01	-0.35
COC(=O)c1ccc(Oc2ccc(C(F)(F)F)cn2)cc1	-0.555	-0.35
CC(C)N1C(=O)/C(=C/c2ccc(N(C)C)cc2)SC1=S	-0.275	0.2
c1ccc(-c2cc3c(nn2)CCc2nonc2-3)cc1	0.225	.
Cc1cccc(C(=O)N(Cc2ccccc2)C(C)C)c1C	1.09	1.4
CCOC(=O)CC(=O)C1CCN(C(=O)OC(C)(C)C)CC1	0.05	-0.2
O=C(N/N=C/c1cccc(F)c1)C1C(c2ccccc2)C(C(=O)N2CCOCC2)C1c1ccccc1 (stereo not drawn)	-0.14	.
COc1ccc(C(=O)NCCN2CCN(C(=O)c3ccc(OC)c(OC)c3)CC2)cc1OC	-0.28	.
CCOCCOC(=O)C1=C(C)NC2=C(C(=O)CC(c3ccc(Cl)cc3)C2)C1c1cccc(OC)c1OC (stereo not drawn)	21.3	.
CNCc1ccc(C)o1	.	-0.35
O=C(CCSc1ccccc1)N1CCOCC1	0.215	-0.3
O=C(c1ccccc1)c1cc2cc(Cl)cc(Cl)c2o1	0.715	.
Cc1ccc(C2CC(c3cccs3)=NN2C(=O)CSc2ncnc3ccccc23)cc1 (stereo not drawn)	2.27	1.8
Cn1c(N)c(S(=O)(=O)N2CCc3ccccc32)c(=O)n(C)c1=O	.	0.4
CC(C)CCN1C(=O)C=CC1=O	-0.335	0.25
CCC(=O)Nc1ccc(C(=O)CSc2nnc(CN3CCCC3)n2-c2ccccc2)cc1	.	-0.1
CCOC(=O)C1C(c2cccc(Oc3ccccc3)c2)NC(=S)NC1(O)C(F)(F)F (stereo not drawn)	0.385	.
CCOC(=O)C1=CN(Cc2ccc(OC)c(OC)c2)C=C(C(=O)OCC)C1c1ccc(Cl)c([N+](=O)[O-])c1	-0.025	.
O=C(NCc1ccco1)c1ccccc1NC(=O)C1CCCCC1	2.07	1.65
CN1CCN(C2=Nc3ccccc3Oc3ccc(Cl)cc32)CC1	-0.565	-0.95
CCCCn1c(CNC(=O)CC)nc2ccccc21	-0.74	-0.4
CN(C)S(=O)(=O)c1ccc(C(=O)NCCN2C(=O)CSC2=O)cc1	.	-0.35
C/C(CC(O)c1ccc2ccccc2n1)=N/O (stereo not drawn)	.	-0.35
COc1ccccc1-c1nnc2ccc3ccccc3n12	-0.115	-0.5
CC1=NN(C2(C#N)CCCCC2)C(c2ccccc2)C1 (stereo not drawn)	-0.065	1.1
Cc1ccccc1NC(=O)c1cccc(NC(=O)C(F)(F)F)c1	-1.17	1.8
CCOC(=O)C1CCN(Cc2cc(Cl)c3ccccc3c2O)CC1	.	-0.35
CC(C)(C)c1cc(-c2nc(-c3ccccc3)no2)n(Cc2ccccc2)n1	-0.255	1.2
Cc1cc(NC(=O)NNc2ccccc2)no1	0.225	-1.25
COc1ccc(C2=Nc3ccccc3N=C(c3cc(OC)ccc3O)C2)cc1	0.355	.
c1ccc(CNCCCN2CCOCC2)cc1	.	-0.9
C=CCn1c(SCc2cccc(OC)c2)nc2scc(-c3ccco3)c2c1=O	.	0.35
Cc1ccc(NC(=O)Cn2c(-c3ccccc3Cl)nc3sc(C)c(C)c3c2=O)cc1Cl	0.155	.
CC(C#N)Sc1ncnc2ccccc12 (stereo not drawn)	.	-0.5
CCOc1cc(C(=O)OCC(=O)Nc2cccc(C)c2)ccc1OCC(=O)N1CCOCC1	.	0.85
COc1cccn(Cc2nnc(SCC(=O)c3ccccc3)o2)c1=O	0.765	-1.15
O=C(COc1ccccc1F)Nc1cccnc1	-0.295	-0.35
Cc1cc(C)nc(/N=C(\N)Nc2ccccc2)n1	0.05	-0.55
Cc1cc(C(=O)COC(=O)c2nccnc2N)c(C)n1C	.	-1.1
Cc1nc(SCCC(=O)O)c2oc3ccccc3c2n1	-0.72	-0.7
Cc1cc(C)n(-c2ccc(C(F)(F)F)cc2)n1	0.01	0.25
O=C(O)c1cc2[nH]c3c(c2cc1Cl)CCCC3	24.1	-0.7
CCOc1ccc(N2C(=O)CC(N3CCCCC3CC)C2=O)cc1 (stereo not drawn)	.	-0.05
O=C(CN1CCN(C(=O)C2CCCO2)CC1)Nc1cc(C(F)(F)F)ccc1Cl (stereo not drawn)	0.525	0.35
COc1ccc(-c2csc(=Nc3ccc(F)cc3)n2CCc2ccc(OC)c(OC)c2)cc1Br	-0.205	.
O=C(CCN1C(=O)c2ccccc2C1=O)OCC(=O)c1ccc2c(c1)OCCO2	.	-1.25
CCOC(=O)Cn1c2ccccc2n2nc(C)c(=O)nc12	-0.225	.
CSc1ccc2c(c1)c(=O)nc1n2CCCCC1	80.2	-0.55
O=C(CC1SC2=NCCN2C1=O)Nc1ccccc1 (stereo not drawn)	2.42	-0.15

Following part
canonical_smiles	Ba CapD inh	AID504770
COC(=O)c1nn(-c2ccccc2)c(=O)c2c(N)sc(C)c12	-0.13	-0.7
Cc1ccc(S(=O)(=O)N2CCC(c3c(C)n(CC(=O)N4CCCC4)c4ccccc34)CC2)cc1C	0.28	0.25
CC1SC(c2cccnc2)N(c2ccc(F)cc2F)C1=O (stereo not drawn)	0.27	-0.6
O=C1c2cccc3cccc(c23)C(=O)N1Cc1ccco1	2.63	.
FC(F)(F)c1ccc(-c2ncc(-c3cnccn3)c(-c3ccncc3)n2)cn1	-0.51	.
O=C1CCCN1c1ccc(S(=O)(=O)Nc2cccc(CCc3ccccn3)c2)cc1	0.1	-0.15
CCCNC(=O)c1cnn2c(C)cc(C)nc12	67.8	2.15
N#CC(c1nc2ccccc2nc1N1CCOCC1)S(=O)(=O)c1ccccc1 (stereo not drawn)	.	0.7
Cc1ccc(Cn2nnc3c(=O)[nH]c(C4CCCN(C(=O)c5ccco5)C4)nc32)cc1 (stereo not drawn)	.	0.3
O=C(CSc1nnc(Nc2ccccc2)s1)N1CCCC1	.	0.2
COCOC(=O)c1c(-c2ccccc2Cl)noc1C	.	-1.1
CCc1ccccc1N1C(=O)C2CCC(C)(C1=O)C2(C)C (stereo not drawn)	-0.25	.
CC1(C(=O)NC2CCCCC2)Cc2ccccc2C(=O)N1C1CCCCC1 (stereo not drawn)	0.21	0.1
CCC(=O)Nc1nonc1-c1ccc(C)cc1	0.63	-0.25
COc1ccc(Oc2cnc3ccccc3n2)cc1	-0.26	-1.1
O=C(NCC(c1ccco1)S(=O)(=O)c1ccccc1)Oc1ccccc1 (stereo not drawn)	.	-0.8
CCOc1ccccc1C=Nc1ccc(S(=O)(=O)N2CCc3ccccc32)cc1	0.045	0.4
COc1cccc(CN2CCC(COC(=O)N3CCN(c4cc(C(F)(F)F)ccn4)CC3)CC2)c1	61.5	.
CCOC(=O)C1=C(C)N=c2s/c(=C/c3ccc(OC(C)=O)cc3)c(=O)n2C1c1ccc(OC(C)=O)c(OC)c1 (stereo not drawn)	0.47	.
COc1cc2c(cc1OC)C(Cc1ccc(OC)c(OC)c1Oc1cc3c(cc1OC)-c1c(O)c(OC)cc4c1C(C3)CN(C)C4)N(C)CC2 (stereo not drawn)	0.02	.
O=C1C2CC=CCC2C(=O)N1c1cccc2ccccc12 (stereo not drawn)	9.21	-0.7
CC(C)(C)c1ccc(NC(=O)CSCC(=O)NN)cc1	-0.57	.
CC1C=CCC2C(=O)N(c3cccc(Cl)c3)C(=O)C12 (stereo not drawn)	-0.45	1.9
c1coc(CNC2CCCCCCC2)c1	-0.04	-0.9
Cn1c(SCC#N)nnc1-c1ccccc1	.	-0.8
CCOC(=O)CN1C(=O)C(=O)N(Cc2c(Cl)cccc2Cl)C1=O	-0.175	.
CC(=O)N1CCc2cc(NC(=O)c3cc4cccc5c4n(c3=O)CCC5)ccc21	-0.43	.
CC1CCC(C(C)C)C(OC(=O)Cn2nnc3c(cnn3-c3ccccc3)c2=O)C1 (stereo not drawn)	.	-0.65
CC(C)CCNC(=O)c1cccc(S(=O)(=O)NCc2ccccc2)c1	0.34	0.15
O=C(O)c1ccc(Br)o1	-1.11	0.9
NC1=NC(=Nc2cccc(C(F)(F)F)c2)c2ccccc21	0.745	0.8
C/C(=N\N)c1cc(C(=O)NN)c(=O)[nH]c1C	-0.285	1.1
COC(=O)C1=C(NC(=O)c2ccc(N3C(=O)CCC3=O)cc2)CCS1	.	0.45
Cc1ccc(NC(=O)CN2C(=O)S/C(=C/c3ccc4c(c3)n(C)c(=O)n4C)C2=O)cc1C	0.015	0.3
Cc1cc(C(=O)CSc2nncs2)c(C)n1CC(F)(F)F	.	-0.2
C=CCc1c(O)nc2n(c1=O)CCCS2	.	-0.55

Compound activity: PubChem BioAssay, ICCB-Longwood Screening Facility, Harvard Medical School

Rows are unselected; overall some 0.41% were active at least once.
